Six1-Eya2 inh: blocks human Six1 binding to Eya2; AlphaScreen GST-Six1/His-Eya2 binding, biochemical; hits give low values; control for the full effect not named in the record; AID 651725; activity change, % (concentration not given with the values); 0.56% of 360,000 active; in the data active = activity change below about -65%; inconclusive = about -30% to -65%; inactive = above about -30%; note: % is set by controls: 0 for no effect and ±100 for the full control effect
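AlphaScreen with GST-Six1 and His-Eya2 (5X mix: 250 nM and 500 nM), glutathione donor and nickel acceptor beads; buffer 50 mM Tris pH 8.0, 300 mM NaCl, 1 mM TCEP; 1 h at 37 C in the dark.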
CtBP-E1A blk: blocks the CtBP interaction with E1A | AlphaScreen GST-E1A/His-CtBP binding, 1536-well; hits give low values; control for the full effect not named in the record | activity change, % (concentration not given with the values) | 0.49% of 340,000 active; in the data active means activity change below about -65%; inconclusive means about -30% to -65%; inactive means above about -30%; note: % is set by controls: 0 for no effect and ±100 for the full control effect
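Protein mix (5X: 125 nM each GST-E1A, His-CtBP) was incubated with pinned compound 2 h at 37 deg C in dark, in 50 mM Tris pH 8.0 buffer with 300 mM NaCl. Glutathione donor and nickel acceptor beads followed; AlphaScreen signal read after 1 h.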
TRPV1 PAM: human TRPV1 potentiation | Q8NER1 | TRPV1-expressing cells, Fluo-8 calcium influx, capsaicin EC20 potentiation; host cell line not named in the record; control for the full effect not named in the record | potentiation, % at 8.33 µM | 0.02% of 320,000 active; active means potentiation above 80%; inconclusive means 30% to 80%; inactive means below 30%; note: 0% is about no effect
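TRPV1-expressing cells were cultured overnight at 35.5C and loaded with Fluo-8 calcium dye for 40 to 90 min at room temperature. After a 10 s baseline, compound was added and calcium influx was read kinetically for 3 min (ex 480/em 520 nm).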
Sfp PPTase inh: blocks B. subtilis Sfp PPTase activity. Q9F4F7. Biochemical Sfp PPTase activity, qHTS. Potency, µM, inactives show max response, negative = inhibition, hits mostly inhibitors. 3.5% of 310,000 active; active = well fitted inhibition curve with a large enough effect; inconclusive = small, poorly fitted or top-dose-only effect, or another doubt; inactive = no such curve, though single readings can be large or run the other way;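 note: the enzyme is Sfp with the accession as filed and its product quenches rhodamine fluorescence; potency is the fitted concentration of half-maximal effect; 0% = enzyme reaction without inhibitor and -100% = no enzyme wells; top concentration of the series not given in the record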
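Compounds were incubated with enzyme (final 15 nM) for 15 min at room temperature before substrate addition started the reaction. Fluorescence at 525 nm excitation, 598 nm emission was recorded immediately and after 30 minutes.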
D2 agonist: agonists of human D2 dopamine receptor (beta-arrestin); P14416; DiscoveRx PathHunter D2 beta-arrestin, luminescence, 90 min; 100% = 57 uM dopamine signal; activation, % (no concentration beside the values); 0.084% of 360,000 active; AID 624465; in the data active = activation above about 40%; inconclusive = about 15% to 40%; inactive = below about 15%; note: compound concentration not given in the record; the text of the record calls up to 30% inactive
Target sequence (P14416 whole entry, looked up): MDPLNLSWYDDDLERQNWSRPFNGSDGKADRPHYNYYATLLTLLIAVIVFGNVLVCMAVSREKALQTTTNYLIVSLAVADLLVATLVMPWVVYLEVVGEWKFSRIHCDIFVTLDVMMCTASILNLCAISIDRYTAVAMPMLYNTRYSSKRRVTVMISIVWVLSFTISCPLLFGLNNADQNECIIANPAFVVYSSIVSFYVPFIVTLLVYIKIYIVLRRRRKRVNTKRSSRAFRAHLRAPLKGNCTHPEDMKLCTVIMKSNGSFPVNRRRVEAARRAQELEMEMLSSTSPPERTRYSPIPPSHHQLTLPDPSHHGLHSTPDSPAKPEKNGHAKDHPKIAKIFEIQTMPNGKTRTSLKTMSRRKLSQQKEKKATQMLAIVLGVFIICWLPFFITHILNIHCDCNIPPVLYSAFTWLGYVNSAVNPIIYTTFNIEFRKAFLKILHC
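Agonist mode: compounds alone added to overnight-plated D2 PathHunter cells for 90 min at 37 C, with 57 uM final dopamine (EC100) defining full response. Beta-arrestin recruitment detected by chemiluminescent reagent, read after 1 h at ambient temperature.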
PINK1 modulator: changes PINK1 expression; 0.2% of 410,000 active; AID 624263; PINK1 immunofluorescence, high-content cytometry, 24 h; Potency, µM (top dose mostly 76.6 µM), for inactives: at the highest dose activation (PINK1 increase), most hits filed as activators; active = well fitted activation curve with a large enough effect; inconclusive = small, poorly fitted or top-dose-only effect; inactive = flat fitted curve, though single readings scatter; cell line not stated here;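 note: potency is the fitted concentration of half-maximal effect; % of control where 0% means no effect; nearly all actives have a fitted effect of over 65% in size; a mitochondrial uncoupler was the plate control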
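PINK1 protein, normally rapidly degraded, was detected by immunofluorescence after 24 hour compound treatment of a stable cell line. Titration data (5 concentrations) came from laser-scanning cytometry, with CCCP-treated wells as controls.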
D2 potentiator: potentiates the human D2 dopamine receptor allosterically; P14416; DiscoveRx D2 beta-arrestin cells, luminescence, 90 min; 100% = 57 uM dopamine signal; potentiation, % (concentration not given with the values); 0.23% of 360,000 active; active = potentiation of 50% or more; inconclusive = 30% to 50%; inactive = 30% or less;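 note: compound concentration not given in the record; tested on top of an EC20 dose of dopamine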
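D2 cells co-treated with compound plus 50 nM dopamine (EC20) for 90 min at 37 deg C to detect potentiation. Beta-arrestin recruitment was read as enzyme-fragment luminescence after 1 h at ambient temperature. Full response was set by 57 uM dopamine.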
* marks the source's active call; other numbers are inactive results; ? = inconclusive; · = no result given; [ ] = remark or other dose.

SMILES | TRPV1 PAM | D2 potentiator | Six1-Eya2 inh | Sfp PPTase inh | D2 agonist | CtBP-E1A blk | PINK1 modulator
COP(=O)(OC)C(Nc1ccc(C)cc1)c1ccc([N+](=O)[O-])cc1 (stereo not drawn) | -4 | 9 | 6 | -19% | 2.2 | -1 | -1.7%
CCN(CC)CCNCc1ccc(OCc2ccc(Cl)nc2)c(OC)c1 | -6 | -6 | 10 | -9% | -2.8 | -3 | -0.7%
Cc1ccc(C(=O)n2ncn(C)c2=S)cc1 | 1 | -1 | -1 | ? | -0.1 | 3 | -3.1%
COc1ccc(CN2C3CCCC2CC(NC(=O)c2cccc(F)c2)C3)cc1 (stereo not drawn) | 6 | -5 | -2 | 9% | -0.6 | 7 | -0.1%
CNc1nc(NN)nc(Nc2ccccc2)n1 | -32 | -6 | -27 | 10% | 4.1 | · | 2.9%
Cc1[nH]c2ccccc2c1C(=O)CSc1nnc(C2CC2)o1 | -14 | 5 | 3 | · | -1.5 | · | -0.3%
O=C(NC1CCSC1=O)c1cccc(C(=O)NC2CCSC2=O)c1 (stereo not drawn) | -1 | -23 | -1 | 5% | -2.0 | 3 | -1.6%
CN1CCN(NC(=O)C2CC2)CC1 | -4 | -19 | 4 | -5% | -3.7 | -9 | -0.5%
O=C1CCCN1CCC1CCN(C2CC(=O)N(c3ccc(Cl)cc3)C2=O)CC1 (stereo not drawn) | 18 | -7 | 1 | -27% | -1.8 | 9 | 2.9%[38.3 µM]
O=C(OCC(=O)N1CCCC1=O)c1nc(Cl)ccc1Cl | -4 | -5 | 1 | · | 0.4 | -1 | -5.4%
CCC(C)NC(=O)/C(=C/c1ccco1)c1ccccc1 (stereo not drawn) | 11 | -10 | -2 | 3.2µM* | 1.0 | -1 | -0.6%
O=C(c1ccc(Cl)c(S(=O)(=O)N2CCCC2)c1)N1CCCC(C(F)(F)F)C1 (stereo not drawn) | -9 | 7 | 11 | · | -3.1 | -7 | 3.2%
O=c1oc2ccccc2n1Cc1cccc(Cl)c1 | 5 | -11 | 20 | 9% | -3.1 | · | 2.3%
CCOc1ccc(CN2CCN(CC3CC3)CC2CCO)cc1 (stereo not drawn) | -6 | -20 | -1 | 15% | -0.4 | · | 4.2%
CC(C)(C)C(=O)N1CCC(O)(CS(=O)(=O)Cc2ccccc2Cl)CC1 | 15 | -14 | 0 | 10% | 3.3 | -3 | -1.9%

Only D2 potentiator and CtBP-E1A blk, for two of the compounds above:
SMILES	D2 potentiator	CtBP-E1A blk
CCC(C)NC(=O)/C(=C/c1ccco1)c1ccccc1 (stereo not drawn)	-10	-1
CCN(CC)CCNCc1ccc(OCc2ccc(Cl)nc2)c(OC)c1	-6	-3

(list continues)
SMILES | TRPV1 PAM | D2 potentiator | Six1-Eya2 inh | Sfp PPTase inh | D2 agonist | CtBP-E1A blk | PINK1 modulator
COc1ccc(-n2nc3c(c2NC(=O)C(C)C)CSC3)cc1 | 4 | -4 | 6 | -22% | 4.8 | · | 0.5%
O=C(Nc1cccc(N2C(=O)C3CCCCC3C2=O)c1)c1ccccc1 (stereo not drawn) | 2 | -2 | -6 | 17% | 0.4 | 8 | 2.1%
Cc1c(C=O)c(Cl)n(C)c(=O)c1C#N | 3 | 15 | -3 | ? | 1.5 | 1 | -1.0%
O=C(NCc1ccncc1)c1cc(F)c(F)cc1Cl | 1 | -3 | 8 | 15% | 0.6 | -14 | -0.5%
CCN(CC)c1ccc(N2C(=O)CSC2=S)cc1 | -9 | 6 | -11 | 8% | 5.3 | -17 | -0.4%
CCOC(=O)c1c(C)[nH]c(C)c1C(=O)CSc1nnc(-c2cc(OC)c(OC)c(OC)c2)o1 | 17 | -5 | -2 | -4% | -1.1 | 6 | 18%
O=C(CN1CCCc2ccccc21)Nc1cccc(S(=O)(=O)N2CCCC2)c1 | · | -11 | -12 | · | -0.8 | 0 | -0.7%
O=C(CN1C(=O)/C(=C/c2ccccc2)SC1=S)NNC(=O)c1ccccc1O | 2 | 0 | -2 | 7% | -2.4 | 3 | -0.8%
O=C(Nc1cccc(NC(=O)c2cccs2)c1)c1ccc(Br)o1 | -8 | 0 | -17 | -6% | -0.4 | -20 | -2.2%
CN(c1ccccc1)c1nc(N)c([N+](=O)[O-])c(N2CCCC2)n1 | 11 | 5 | -15 | 4% | -5.1 | 5 | 3.3%
C[C@@H]1CN([C@H](C)CO)S(=O)(=O)c2ccc(C3=CCCCC3)cc2O[C@H]1CN(C)C(=O)Cc1cccnc1 | · | 0 | -1 | · | -5.8 | 4 | 0.2%
Cc1cc(S(=O)(=O)Nc2ccc(C(=O)N3CCN(c4ccccc4O)CC3)cc2)ccc1F | 1 | 14 | 2 | 13% | 1.6 | -4 | 2.7%
COc1ccc(Nc2ncnc3sc(-c4ccccc4)cc23)cc1 | 0 | -4 | 5 | -1% | -0.9 | 6 | 5.7%[38.3 µM]
CC(=O)c1cccc(NC(=O)CCNC(=O)c2cccc(C)c2)c1 | -6 | -7 | 6 | 18% | -4.3 | -3 | 0.9%
Cc1cc(C)n(C(=O)Cn2nc([N+](=O)[O-])c(Br)c2C)n1 | 7 | -2 | 1 | 8% | -0.4 | 12 | 2.0%
Cn1c(CNC(=O)CNC(=O)c2ccc(F)cc2)cc(=O)n(C)c1=O | 16 | -5 | 7 | 10% | -2.9 | · | 1.3%
CCCC12CN(C(=O)c3ccc([N+](=O)[O-])cc3)CC(C)(CN(C(=O)c3ccc([N+](=O)[O-])cc3)C1)C2=O | 8 | -20 | 2 | -6% | 1.6 | -2 | -2.1%
O=C(O)c1ccc(CN2C[C@@H](CO)O[C@@H](n3cnc4c(NCc5ccco5)ncnc43)C2)cc1 | · | 1 | 2 | · | -0.8 | 4 | 1.5%
CC1CC(C)CN(C(=O)CCNC(=O)Cn2ccc3ccccc3c2=O)C1 (stereo not drawn) | 0 | -3 | 9 | 6% | -1.3 | -2 | 1.9%
Cc1ccccc1OCC(=O)N/N=C/C=C/c1ccccc1 | 6 | 1 | -1 | 19% | -2.5 | 1 | 4.7%
CN(C)/C=N/c1sc2c(c1C#N)CC(C)(C)NC2(C)C | 16 | 10 | 2 | 7% | -1.3 | 9 | ·
COc1ccc(/C=C/C(=O)c2ccc(NS(=O)(=O)c3ccc(C)cc3)cc2)cc1O | 6 | -1 | 2 | 3% | -1.0 | -3 | 0.9%
O=C(COC(=O)C1CCCC1)Nc1ncc(Cl)cc1Cl | 0 | 8 | -11 | · | 2.5 | 0 | 1.0%
O=S(=O)(c1ccc(OCc2ccc(Br)cc2)cc1)N1CCOCC1 | -2 | -1 | 4 | · | -3.5 | 1 | 4.4%
Cc1cc(C)nc(SCc2cc(=O)c(OC(=O)c3cc([N+](=O)[O-])ccc3Cl)co2)n1 | -2 | -3 | 1 | -6% | -0.7 | 6 | -1.7%
Cc1ccccc1CC(=O)Nc1ccc(S(=O)(=O)N2CCOCC2)cc1 | -1 | -9 | 4 | -1% | 0.3 | 3 | -1.2%
CC(CNC(=O)CN1C(=O)C(=O)N(C2CCCC2)C1=O)c1ccccc1 (stereo not drawn) | 2 | -1 | -3 | · | -1.9 | · | 3.1%
COc1cc2c(cc1OC)CN(C(=O)CN1C(=O)NC3(CCC(C)CC3)C1=O)CC2 (stereo not drawn) | -2 | -3 | 9 | · | 5.4 | · | 2.3%
COc1cc(OC)cc(C(=O)NCC(=O)OCC(=O)Nc2cc(S(C)(=O)=O)ccc2Cl)c1 | 6 | 3 | -1 | 7% | -2.8 | · | 0.6%
COc1ccc(N2CCN(c3cc(C(=O)NC4CCCCC4)ncn3)CC2)cc1OC | · | -5 | 20 | · | -2.1 | -13 | 0.9%
CC(C)(C)OC(=O)C[C@@H]1C/C=C\C[C@@H](CC(=O)N[C@H](CO)Cc2ccccc2)C(=O)NC[C@H](c2ccccc2)OC1=O | · | 13 | 11 | · | 2.3 | 8 | 3.5%
CCCCCCCCCC(=O)N1CCN(c2cc3c(cc2F)c(=O)c(C(=O)O)cn3CC)CC1 | 21 | -4 | 12 | 11% | -4.7 | · | -0.2%
COc1cccc(NC(=O)c2ccc(C(=O)c3ccccc3)o2)c1 | -1 | -21 | -10 | 14% | -0.8 | -3 | 3.2%
COc1cccc(/C=C2\SC(=S)N(CCC(=O)NC3C=CS(=O)(=O)C3)C2=O)c1 (stereo not drawn) | 4 | 1 | -6 | -10% | -3.1 | -12 | 1.2%
CC(C)C(C(=O)Nc1ccc(N2CCOCC2)cc1)N1C(=O)c2ccccc2C1=O (stereo not drawn) | 0 | 16 | 2 | 4% | 0.8 | 8 | ·
NC(=O)C1CC(=O)N(c2ccc(OCc3c(F)cccc3Cl)cc2)C1 (stereo not drawn) | -11 | -1 | 11 | 1% | -0.4 | 7 | 2.0%
COc1ccc(OC)c(NC(=O)CSc2nnnn2-c2ccc3c(c2)OCO3)c1 | 27 | -12 | -5 | -1% | -1.5 | -1 | ·
C/C(CC(=O)Nc1ccc(Cl)c(C(F)(F)F)c1)=N\NC(=O)c1cnccn1 | -6 | -17 | -2 | 1% | -6.9 | -1 | ?
CN(CCC1CCOCC1)Cc1nc(Cc2ccccc2F)no1 | 0 | 0 | 5 | 1% | 3.0 | · | -0.4%
CC(=O)NCCC(=O)Nc1cc(S(=O)(=O)N2CCOCC2)ccc1Oc1ccccc1 | -1 | 7 | 16 | 14% | -0.5 | 10 | -0.8%
Cc1ccc(S(=O)(=O)Nc2ccc(O)c3ccccc23)c(C)c1 | ? | 11 | ? | 56µM* | -1.3 | 2 | -3.3%
CC(C)(C)n1nnnc1C(c1ccncc1)N1CCN(c2ccc(O)cc2)CC1 (stereo not drawn) | -9 | ? | 17 | 16µM* | 5.5 | 48 | ·
CC(=O)c1cc(F)ccc1OCC(=O)Nc1ccc2c(c1)OCO2 | · | -23 | 2 | · | -5.1 | 0 | -0.3%
COc1cc(OC)cc(C(=O)N[C@H](C(=O)NCCc2c[nH]c3ccccc23)C(C)C)c1 | 10 | -26 | -11 | 14% | -3.8 | -2 | 2.3%
Cc1ccccc1OCC(=O)Nc1ccccc1N1CCOCC1 | -20 | -33 | -1 | 7% | 0.2 | 10 | 3.0%

Compound activity deposited in PubChem by National Center for Advancing Translational Sciences (NCATS).

Rows are unselected; overall some 3.7% were active at least once.
